Screening results from PubChem BioAssay.
Biofilm kill mix: mixture kills Candida albicans biofilm cells; 0.02% of 120,000 active; C. albicans biofilm persisters + clotrimazole, fluorescence viability; primary screen in compound mixtures of four per well; inhibition, % at 7.6 µM;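 active = inhibition above 30.3% in the primary screen of four-compound pools, then above 30% when the compound was retested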;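 note: compounds exposed to preformed 24 h biofilms for 48 h; the number belongs to the whole pool; some results filed as inactive read as strong as hits; inactives centre near 12; 0% = biofilm with clotrimazole alone and 100% = kill control; retested singly at about 60 µM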
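Probe or stimulus – Clotrimazole 50 µg/mL co-treatment · System – C. albicans biofilms · Schedule – 24 h biofilm formation, then 48 h compound exposure, 37 °C · Evaluation – percent inhibition of biofilm viability · Technique – 2-h Alamar Blue fluorescence, 535/590 nm excitation/emission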
* marks the source's active call; other numbers are inactive results. Only part of the results is shown, so the mix of outcomes need not match the whole.

SMILES | Biofilm kill mix
Cc1cc(C)c2c(N)c(C(=O)c3ccc(Cl)c(Cl)c3)sc2n1 | 17.7
Cc1nc(N)c(Cc2ccc(Cl)cc2Cl)c(N)n1 | 19.0
CC(=O)Nc1ncc(Cc2cccc(Cl)c2Cl)s1 | 10.0
C/C(=C\c1ccccc1)CN1CCC(C(=O)N2CCCCC2)CC1 | 19.3
Cc1ccc(S(=O)(=O)Nc2nc(-c3ccc(F)cc3)cs2)cc1 | 3.3
CN(CC(=O)Nc1ccccc1C(F)(F)F)C(=O)COc1ncnc2ccccc12 | 12.4
Cc1cc(C(=O)Nc2ccc3c(c2)CCC3)c2ccccc2n1 | 5.6
Cc1ccc(C(=O)NCCc2ccc(S(=O)(=O)N3CCCC3)cc2)cc1 | 5.1
NS(=O)(=O)c1ccc(NC(=O)COC(=O)c2c3c(nc4ccccc24)/C(=C\c2ccc4c(c2)OCO4)CCC3)cc1 | 18.7
CCn1c(C2CCN(S(=O)(=O)c3ccc(OC)cc3)CC2)n[nH]c1=S | 5.1
O=C(O)c1ccc(-c2nc(-c3ccc(Cl)cc3)cs2)cc1 | 22.4
O=C(/C=C/Sc1ccc(C(F)(F)F)cn1)c1ccccc1 | 25.1
CCOc1ccc(/C=N/n2c(C)nnc2C)cc1OC | 4.1
O=C(CSc1cccc[n+]1[O-])Nc1cc2c(cc1Cl)C(=O)c1ccccc1C2=O | 12.6
Cc1cc([N+](=O)[O-])c2c(c1C)C1C=CCC1C(c1ccccn1)N2 (stereo not given) | 22.0
COc1cccc(COc2ncnc3sccc23)c1 | 8.2
Cc1[nH]n(-c2ccccc2)c(=O)c1C(=O)c1ccccc1 | 7.9
O=C(Nc1ccccn1)c1cc2ccccc2o1 | -4.1
COC(=O)CCC(=O)OC1(C)C(=O)C=C2C=C(C3CC3)N(c3cccc(C#N)c3)C=C2C1=O (stereo not given) | 15.8
O=C(Nc1ccc(S(=O)(=O)Nc2ncccn2)cc1)c1cccc(S(=O)(=O)N2CCCC2)c1 | 14.3
CC(C)c1onc(C(=O)N2CCOCC2)c1[N+](=O)[O-] | 3.4
C#CCNC(=O)C1=C[C@@H](c2ccc(Br)cc2)[C@H](CCCO)[C@@H](OCC)O1 | 18.5
COCCN(C(=O)CC(C)(C)C)c1nnc(-c2cccnc2)s1 | 9.3
Cc1ccsc1/C=C(\C#N)C(=O)Nc1c(C)n(C)n(-c2ccccc2)c1=O | 12.3
N/C(=N\OC(=O)COc1ccccc1)c1ccccn1 | 18.5
S=C(NCCCN1CCOCC1)N1CCN(c2nc(-c3ccc(Cl)cc3)cs2)CC1 | 10.0
O=C(NCc1ccccn1)NC1CCCCC1 | 13.2
Clc1ccc(CNc2cnccn2)cc1 | 16.7
CN1/C(=C\C(=O)c2cccs2)C(C)(C)c2ccccc21 | 11.2
Cc1nc2c(c(C)c1C#N)C(=O)c1ccccc1-2 | 17.9
COCCNc1c(-c2ccc(OC)cc2)nc2ccc(Cl)cn12 | 0.3
CCCCn1c(SCc2ccccn2)nc2c1c(=O)n(C)c(=O)n2C | 12.0
Cc1ccccc1NC(=S)N(CCCN1CCC(C)CC1)Cc1ccco1 | 12.5
Cc1cc(=O)oc2cc(OCC(=O)Nc3cccc(S(=O)(=O)N(C)C)c3)ccc12 | 8.0
CCOCCCNC(=O)c1ccc(N2CCCC2)c(NS(=O)(=O)c2ccc(C)cc2)c1 | 10.6
COc1ccc(CNC(=O)C(c2ccncc2)N(C(=O)Cc2cccs2)c2ccccc2)cc1 (stereo not given) | 7.6

Exported with tabs: 7 of the compounds above.
Compound	Biofilm kill mix
S=C(NCCCN1CCOCC1)N1CCN(c2nc(-c3ccc(Cl)cc3)cs2)CC1	10.0
O=C(NCc1ccccn1)NC1CCCCC1	13.2
Clc1ccc(CNc2cnccn2)cc1	16.7
CN1/C(=C\C(=O)c2cccs2)C(C)(C)c2ccccc21	11.2
Cc1nc2c(c(C)c1C#N)C(=O)c1ccccc1-2	17.9
COCCNc1c(-c2ccc(OC)cc2)nc2ccc(Cl)cn12	0.3
CCCCn1c(SCc2ccccn2)nc2c1c(=O)n(C)c(=O)n2C	12.0

(next part)
SMILES | Biofilm kill mix
N#Cc1c(Nc2ccc(F)cc2)sc(C(=O)c2ccccc2)c1N | 13.6
CCOC(=O)c1ccc(NC(=O)Nc2ccccn2)cc1 | 13.7
CCC(CC)c1nnc(NC(=O)c2ccco2)s1 | 7.6
Cc1nnn(C23CC4CC(CC(CC(=O)Nc5cccc(F)c5)(C4)C2)C3)n1 | 11.3
COCCSc1nnc(NC(=O)C2CC(=O)N(c3ccc(C)cc3)C2)s1 (stereo not given) | 15.5
Cc1ccc2nc(N(CCN(C)C)C(=O)/C=C/c3cccs3)sc2c1 | 14.2
COc1cccc(CCNC(=O)c2ccc(C#N)cc2)c1 | 9.9
Cc1cccc(OCCC(=O)Nc2ccc(C)c(S(=O)(=O)N3CCCCC3)c2)c1 | 21.7
O=C(Nc1ccccc1Cl)c1cc[n+](Cc2ccc([N+](=O)[O-])cc2)cc1 | 7.0
O=C(/C=C\c1ccc2c(c1)OCO2)NC1(C(=O)Nc2ccc3c(c2)OCCO3)CCCCC1 | 10.2
Cc1ccc(CN2C(=O)N/C(=C\c3ccc(N4CCOCC4)cc3)C2=O)cc1 | 10.2
O=C(N/N=C/c1ccc(N2CCOCC2)s1)c1ccccc1Cl | 14.9
O=C(C1=C[C@@H](C2CC2)C[C@@H](OCCCCO)O1)N1CCN(Cc2ccccc2)CC1 | 27.3
N#Cc1ccccc1Cn1c(=O)n(CCC(=O)NCc2ccco2)c(=O)c2ccccc21 | 16.5
O=C(CNC(=O)c1ccc(N2C(=O)c3ccccc3C2=O)cc1)OCC(=O)c1ccccc1 | 8.1
O=C(CN1CCN(c2ccc(Cl)cc2)CC1)NCc1cccs1 | 8.7
COc1ccc(C(=O)NCC(=O)N/N=C/C=C/c2ccccc2)cc1OC | 10.4
Cc1noc(C)c1C(=O)OC(C)C(=O)Nc1ccc(S(=O)(=O)NC(C)C)cc1 (stereo not given) | 7.2
COc1ccccc1/C=N/NC(=O)CNC(=O)c1ccc(S(=O)(=O)N(C)C)cc1 | 9.3
COc1cc(C)ccc1OCCOCCN(C)Cc1ccccc1 | -8.7
O=C(CCCCCCCC(=O)NCC1CCCO1)NCC1CCCO1 (stereo not given) | 19.7
COCCNC(=S)N(C)C1(c2ccccc2Cl)CCCCC1=O (stereo not given) | 1.5
COc1ccc(-c2noc(-c3cccc(Cl)c3)n2)cc1OC | 16.1
CCOC(=O)N1CCN(C(=O)/C=C/c2c(C)nn(-c3ccc(F)cc3)c2Cl)CC1 | 14.3

Pulled one by one from the list above:
SMILES | Biofilm kill mix
O=C(CNC(=O)c1ccc(N2C(=O)c3ccccc3C2=O)cc1)OCC(=O)c1ccccc1 | 8.1
COc1ccc(C(=O)NCC(=O)N/N=C/C=C/c2ccccc2)cc1OC | 10.4

New compounds follow.
SMILES | Biofilm kill mix
CCC(C)NC(=O)COc1ccc(OCc2ccccc2)cc1 (stereo not given) | 23.6
COc1cc(C(=O)Nc2cc(-c3ccccc3)[nH]n2)cc(OC)c1OC | 11.1
COc1ccccc1OCCC(=O)OCC(=O)NCc1ccc(Cl)cc1 | 15.0
CCCn1c(SCC(=O)c2cc(C)n(-c3ccc4c(c3)OCO4)c2C)n[nH]c1=O | 10.3
O=C(Cc1c(F)cccc1Cl)N1CCOCC1 | 11.0
COc1cc2c(cc1OC)C(=O)N(C)CC2 | 20.1
Cc1ncc(CO)c2cc(-c3nnc(Nc4ccc5c(c4)OCO5)s3)c(=O)oc12 | 12.6
Cc1cccc(OCC(=O)Nc2ncn[nH]2)c1C | 3.5
CC(C)N(Cc1ccccc1)C(=O)COC(=O)/C=C/c1cnc2ccccc2n1 | 6.0
COc1ccc(Cn2c(C)nnc2-c2cnn(C)c2N)cc1 | 4.2
O=C(O)CCCCNS(=O)(=O)/C=C/c1ccccc1 | 11.3
CCCC(=O)Oc1ccc2c(C)cc(=O)oc2c1 | 5.7
C=C(C)CSc1nc2sc3c(c2c(=O)n1C1CCCCC1)CCN(C)C3 | 19.2
O=C(CCCCCCCCC(=O)N/N=C/c1ccco1)N/N=C/c1ccco1 | 6.9
Cc1csc2c(N3CCCCC3)ncnc12 | 6.3
COCc1cc(C)nc(SCC(=O)Oc2ccccc2)c1C#N | 13.8
COCCNC(=O)CCCn1c(=O)c2cc(OC)c(OC)cc2n(CC(=O)c2ccc(Cl)cc2)c1=O | 12.1
CN1CCc2c(sc(/N=C/c3cc(Cl)ccc3O)c2C#N)C1 | 23.5
CC(C)C(=O)Nc1nnc(Cc2c[nH]c3ccccc23)s1 | 15.0
CCN(CC)c1ccc(/C=N/Nc2nc3ccccc3[nH]2)cc1 | 7.0
CCCC(=O)OCC(=O)Nc1ccc2c(c1)OCO2 | 19.6
Cc1c(NC(=O)CSc2nnc(-c3ccncc3)o2)c(=O)n(-c2ccccc2)n1C | 14.6
CCCCNC(=O)CN(c1ccc(Cl)c(Cl)c1)S(C)(=O)=O | 10.8
OC(c1cc(C(F)(F)F)nc2c(Cl)cc(Cl)cc12)C1CCCCN1 (stereo not given) | 15.3
COc1ccccc1N1CCN(C(=O)c2ccc3nc(-c4ccco4)c(-c4ccco4)nc3c2)CC1 | 15.8
COc1cc(NC(=S)NC2CC(C)(C)NC(C)(C)C2)cc(OC)c1 | 1.5
Cc1onc(-c2ccccc2Cl)c1C(=O)NC(=S)NCc1cccnc1 | 24.2
COc1cc(O)c2c(c1)OC(c1ccc(O)cc1)CC2=O (stereo not given) | 22.8
C=CCN1C(C(=O)c2ccccc2)=C(OC(=O)COc2ccccc2)c2ccccc2S1(=O)=O | 16.3
O=C(O)CS(=O)(=O)CC(=O)NCc1cccc(C(F)(F)F)c1 | 6.3
COC(=O)c1c(N)sc(Cc2ccccc2)c1C | 32.5
Cc1ccc(CN(Cc2ccc(C)o2)C(=S)NCC(=O)O)cc1 | 10.2
CC1CN(S(=O)(=O)c2ccc(C(=O)Nc3nnc(-c4ccccn4)o3)cc2)CC(C)O1 (stereo not given) | 14.0
Cc1c(CCC(=O)O)c(=O)oc2cc3oc4c(c3cc12)CCCC4 | 26.3
O=C(O)c1cc(-c2ccc3c(c2)OCO3)nc2ccccc12 | 7.6
Cc1c(NC(=O)COC(=O)C2(c3ccc(F)cc3)CCCC2)c(=O)n(-c2ccccc2)n1C | 16.6
COc1cc(/C=N/Nc2cc(C)nc(NS(=O)(=O)c3ccccc3)n2)ccc1O | 15.6
O=C(Nc1ccc(Cc2ccncc2)cc1)c1ccc(N2CCOCC2)c([N+](=O)[O-])c1 | 2.2
CC1CN(CC(=O)NN=C(c2ccccc2)c2ccccc2)CC(C)O1 (stereo not given) | 13.5
CCCCn1c(Oc2ccc(C(=O)OC)cc2)nc2c1c(=O)n(C)c(=O)n2C | 8.1
CCCCOc1ccc(C(=O)N/C(=C/c2cccc([N+](=O)[O-])c2)C(=O)O)cc1 | 20.4
Cc1nn(-c2ccccc2)c(Cl)c1C(=O)NC1CCCCC1 | 16.4
Cn1c(N)c(Sc2ccc(F)cc2)c(=O)n(C)c1=O | -1.3
C/C(CCC(C)C)=N\NC(=S)Nc1cc(S(=O)(=O)N2CCOCC2)ccc1N1CCOCC1 | 2.9
O=C(NCCCO)c1ccc2nc(-c3ccco3)c(-c3ccco3)nc2c1 | 7.4
S=c1[nH]nc(-c2ccccn2)n1/N=C/c1ccc(Cl)cc1 | 14.3
Cc1ccc2cc(CCNC(=O)C(=O)c3c[nH]c4ccccc34)c(=O)[nH]c2c1 | 12.4
Cc1ccc(OCC(=O)N2CCCc3ccccc32)cc1 | 3.5

Arranged by molar mass (smallest number first): part of the list above.
SMILES | Biofilm kill mix
S=c1[nH]nc(-c2ccccn2)n1/N=C/c1ccc(Cl)cc1 | 14.3
O=C(NCCCO)c1ccc2nc(-c3ccco3)c(-c3ccco3)nc2c1 | 7.4
CCCCn1c(Oc2ccc(C(=O)OC)cc2)nc2c1c(=O)n(C)c(=O)n2C | 8.1

Continuation.
SMILES | Biofilm kill mix
CO/N=C/C(C#N)=C/c1ccc(OC)cc1 | 6.7
Cc1ccccc1C(=O)c1c[nH]c(C(=O)N=CN(C)C)c1 | 8.0
Cc1cc(C(=O)N2CCOCC2)ccc1[N+](=O)[O-] | 1.8
CCCCCCCCCCSc1n[nH]c(N)n1 | -6.2
CCOC(=O)c1csc(NC(=O)c2ccc(C#N)cc2)n1 | 1.7
O=C(c1cccc([N+](=O)[O-])c1)N1CCN(Cc2ccc3c(c2)OCO3)CC1 | 10.2
Cc1ccc(Oc2c(CO)c(-c3ccccc3)nn2C)cc1 | 7.5
O=C(NCCC1=CCCCC1)C(=O)NCC1OCCCN1S(=O)(=O)c1ccc(F)cc1 (stereo not given) | -0.5
O=[n+]1cc(-c2ccccc2)n([O-])c2c1CCCCC2 | 11.2
Cc1nn(-c2ccccc2)c2nc(-c3ccccc3)cc(C(=O)N3CCOCC3)c12 | 15.7
CCn1c(C)cc(/C=C2/NC(=O)N(c3ccccc3)C2=O)c1C | -11.1
CCOC(=O)N/N=C/c1cn(Cc2ccccc2Cl)c2ccccc12 | 14.4
CCOC(=O)c1c(C)[nH]c(C(=O)C(C)Cl)c1C (stereo not given) | 10.9
O=C(Nc1ccc2ccccc2c1)[C@@H]1C[C@H]1[C@@H](NP(=O)(c1ccccc1)c1ccccc1)c1ccccc1 | 5.4
Cc1ccc(NC(=O)Cn2cnc3cc([N+](=O)[O-])ccc3c2=O)cc1 | 32.0
COc1ccccc1/C=N/NC(=O)c1ccc(N(C)S(=O)(=O)c2ccccc2)cc1 | 11.4
CC1SCC(=NOCc2ccccc2)CS1 (stereo not given) | 3.0
O=C(CCCCl)Oc1ccc2cc(-c3ccc4ccccc4n3)c(=O)oc2c1 | 29.8
O=C(c1cc(COc2ccc(F)cc2Cl)on1)N1CCC(OCc2cccnc2)CC1 | 13.4
Cc1cc(C)cc(NC(=O)C(OC(=O)C2=COCCO2)c2ccccc2)c1 (stereo not given) | 2.6
